Rce1 inhib: yeast Ras-converting enzyme inhibition; Q03530; calls only; yeast membranes, quenched prenylated peptide cleavage fluorescence; AID 2563; actives 0.27% (n = 290,000);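 active = fall in fluorescence gain of 50% or more versus controls, with final raw signal at or below 3038400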;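 also: plate controls were neutral control wells for no effect and wells lacking membranes for full effect; tested at 10 µM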
Target sequence (Q03530 whole entry, looked up): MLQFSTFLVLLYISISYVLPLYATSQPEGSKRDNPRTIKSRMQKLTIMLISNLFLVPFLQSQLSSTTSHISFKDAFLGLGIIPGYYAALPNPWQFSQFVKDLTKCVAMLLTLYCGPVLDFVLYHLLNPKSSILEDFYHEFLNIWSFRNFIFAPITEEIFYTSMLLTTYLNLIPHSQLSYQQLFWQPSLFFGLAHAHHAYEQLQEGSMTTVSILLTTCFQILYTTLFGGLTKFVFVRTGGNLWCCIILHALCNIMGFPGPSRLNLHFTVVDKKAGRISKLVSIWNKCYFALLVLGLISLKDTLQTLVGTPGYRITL
eIF4H inh: inhibitors of RNA binding by human eIF4H; Q15056; eIF4H fluorescence polarization binding assay; inhibition, % at 35 µM; actives 0.94% (n = 290,000); AID 2012;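 active = 50% or more with normal probe brightness, or confirmed in later tests; about a fifth of its hits are not listed in these tables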;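 also: calls also rest on retests at 20 µM and on dose response follow-up; 0% = protein and probe with vehicle and 100% = probe without protein; strong numbers were not always called active; many hits fall short of the cut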
Env fusion inh: blocks HIV Env-driven cell-cell fusion; HeLa-JRFL Env/CEM21 cell fusion, luciferase; inhibition, % at 12.3 µM; actives 1.1% (n = 360,000); AID 651610;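 active = mean replicate inhibition score of at least 50 and every replicate individually at or above 50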;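 also: 0% = plate neutral controls and 100% = maraviroc near 300 nM; one replicate is shown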
CSC inhib: cancer stem cell inhibition. AID 2717. inhibition, % at 7.5 µM. cancer stem cell-like cells viability, luminescence. actives 1.1% (n = 300,000);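 active = mean at 75% or more and at least half the replicates too; tested in HMLE shEcad cells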;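 also: 0% = median of negative and 100% = median of positive control wells; the first replicate is given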
MT1-MMP act inh: inhibitors of human MT1-MMP activation. P50281. HT1080 RFP-PRO-GFP cells, GFP/RFP ratio fluorescence, overnight; percent of plate control window, DMSO zero. actives 0.061% (n = 360,000). GFP/RFP ratio change, % at 20 µM;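 active = GFP/RFP ratio change of at least 30% with cell ATP level not reduced by more than half and red fluorescence within 50% of control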; also: strong numbers were not always called active
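Test system: HT1080 cells expressing an RFP-PRO-GFP fluorescent reporter construct / Compound dosing: single-point 20 µM compound, 1% DMSO / Schedule: cells overnight before dosing, compound overnight, 37 °C, 5% CO2 / Evaluation: GFP/RFP fluorescence ratio / Control set: DMSO and RFP-L50D-GFP cell wells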
Yeast UUG start: yeast start codon fidelity modulation | AID 602363 | activity score, % at 18.7 µM | S. cerevisiae UUG-firefly luciferase reporter, luminescence/redox ratio | actives 0.13% (n = 350,000);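 active = replicate mean at a twofold rise or more, about +100% in these data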;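 also: firefly luciferase made from a UUG start codon reports start codon fidelity; reporter light over untreated wells divided by growth signal over untreated wells; some hits fall short of that in this replicate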
PABP FP inh: blocks human PABP binding to poly(A) RNA; P11940; fluorescence polarization; inhibition, % at 35 µM; actives 1% (n = 290,000); AID 2014;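 active = 50% or more with normal probe brightness, or confirmed in later tests; about a fifth of its hits are not listed in these tables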;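 also: calls also rest on retests at 20 µM and on dose response follow-up; controls were probe without protein and protein plus probe with vehicle; some compounds called inactive have numbers as strong as hits; many hits fall short of the cut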
MT1-MMP act inh RFP: second read-out of MT1-MMP act inh, no call of its own (marks repeat the call); RFP signal change, %; measured here: RFP expression control read;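 0 = vehicle wells; hits needed this value within 50% of zero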
An asterisk follows results filed as active; i = inactive; x = not tested or not shown.

molecule,eIF4H inh,MT1-MMP act inh,Env fusion inh,MT1-MMP act inh RFP,Rce1 inhib,PABP FP inh,CSC inhib,Yeast UUG start
O=c1nc2sc3ccccc3n2c(=O)n1-c1ccc(Cl)cc1,1,6,-40,5,i,3,39,1
CCOC(=O)CC1(NC(=O)C2CCC(=O)N(Cc3ccccc3F)C2)CCCCC1 (stereo unspecified),-4,3,-4,1,i,-1,8,-6
Cc1ccnc(NS(=O)(=O)c2ccc(NC(=O)c3ccc(C)o3)cc2)n1,3,-4,-43,4,i,-8,-11,-6
COc1cccc(N2CCN(c3ncccn3)CC2)c1,4,-2,x,1,i,3,-8,x
CC(C)CN1C2CCCC1CC(NC(=O)c1ccc([N+](=O)[O-])cc1)C2 (stereo unspecified),6,1,-1,5,i,2,-6,-9
CCN(CC)c1ccc(NC2CC(=O)N(CCc3ccc(OC)cc3)C2=O)cc1 (stereo unspecified),30,-58,-7,11,i,12,-9,6
COc1ccc2c(c1)OC(O)(C(F)(F)F)CC2=O (stereo unspecified),-7,0,x,2,i,-10,-4,-7
COc1ccc(C(=O)C2CCCN(Cc3cn[nH]c3-c3ccc(F)cc3)C2)cc1OC (stereo unspecified),-1,-1,8,1,i,2,4,x

Profiles, looked up by structure. Order of screens: eIF4H inh | MT1-MMP act inh | Env fusion inh | MT1-MMP act inh RFP | Rce1 inhib | PABP FP inh | CSC inhib | Yeast UUG start
Record of CCOC(=O)CC1(NC(=O)C2CCC(=O)N(Cc3ccccc3F)C2)CCCCC1 (stereo unspecified) : -4 | 3 | -4 | 1 | i | -1 | 8 | -6
Record of CCN(CC)c1ccc(NC2CC(=O)N(CCc3ccc(OC)cc3)C2=O)cc1 (stereo unspecified) : 30 | -58 | -7 | 11 | i | 12 | -9 | 6
Record of COc1cccc(N2CCN(c3ncccn3)CC2)c1 : 4 | -2 | x | 1 | i | 3 | -8 | x

The list continues:
molecule,eIF4H inh,MT1-MMP act inh,Env fusion inh,MT1-MMP act inh RFP,Rce1 inhib,PABP FP inh,CSC inhib,Yeast UUG start
O=C(CCNS(=O)(=O)c1ccc(Cl)cc1)N1CCOCC1,11,-2,-70,-2,i,-5,-4,-12
CN(C)c1ccc(N=Nc2cccc(F)c2)cc1,3,1,-102,-1,i,2,14,-40
CC(=O)Nc1cc(-c2ccc(N3CCN(C)CC3)cc2)cn2c(-c3ccc(F)c(Cl)c3)cnc12,x,-13,-7,2,x,x,x,-34
CC1(C(=O)Nc2cccc(C#N)c2)CCN1C(=O)CCc1ccccc1 (stereo unspecified),x,0,-22,-3,x,x,x,-19
CCN(CC)S(=O)(=O)c1ccc(N/N=C/c2ccc(OC)c(OC)c2OC)nc1,3,4,7,2,i,0,2,x
COc1cccc(CNC(=O)C(=O)NCCC2CCCCN2S(=O)(=O)c2cccs2)c1 (stereo unspecified),x,-1,-2,-10,i,x,6,17
CC(C)CC(=O)c1c[nH]c(C(=O)NCc2cccnc2)c1,10,x,26,x,i,8,-4,-14
O=C(Nc1cccc(Br)c1)c1cc2ccccc2o1,0,1,x,-3,i,-6,19,x
CC(=O)N1CCN(S(=O)(=O)c2cccc(C(=O)Nc3ccc4c(c3)OCO4)c2)CC1,8,-5,-18,-3,i,-12,-3,x
CN(c1ccc(C(=O)NCCSCc2c(F)cccc2Cl)cc1)S(C)(=O)=O,-1,5,17,-7,i,-4,0,x
CCN(CC)CCNC(=O)CCc1c(C)nc2c(c(C)nn2-c2ccc(C)c(C)c2)c1C,-8,0,10,2,i,-9,9,1
O=C(/C=C/c1ccc(OCCCF)cc1)NCc1ccc(Cl)c(Cl)c1,-2,11,x,5,i,-2,2,-12
CCOC(=O)C1=C(C)Nc2nc3ccccc3n2C1c1cccs1 (stereo unspecified),-4,4,x,6,i,4,-10,x
CCCS(=O)(=O)N1CCCC(C(=O)NCCN(C)Cc2ccccc2)C1 (stereo unspecified),-15,5,x,4,i,0,x,-9
COC(=O)[C@H](C)NC(=O)NCc1ccco1,4,2,x,3,i,-5,x,-9
CCCSC1=C(C#N)C(c2cccs2)CC(=O)N1 (stereo unspecified),-3,5,-5,4,i,4,-13,x
Cc1ccc(SC(C)C(=O)NC2CC2)cc1 (stereo unspecified),2,0,-4,4,i,-2,-3,-13
CCCOc1ccc(C(NC(=O)CC(C)C)NC(=O)CC(C)C)cc1OC,-5,-3,10,2,i,1,2,23
CC(C)C(c1nnnn1CCc1ccccc1)N1CCN(C(=O)c2ccco2)CC1 (stereo unspecified),2,-12,8,2,i,11,x,8
CN(Cc1ccccc1)C(=O)c1[nH]cnc1C(=O)N[C@@H](Cc1ccccc1)C(=O)OC(C)(C)C,7,6,24,4,i,3,-9,-16
CSCC[C@H](NC(=O)c1ccc(OCC2CCCO2)cc1)c1nc2ccccc2[nH]1 (stereo partly specified),x,-6,-2,-3,x,x,2,-9
Cc1ccc(-c2csc(N=C(N)N)n2)c(C)c1,-5,-1,7,-10,i,-11,-3,-5
CN(C)S(=O)(=O)c1cccc(NC(=O)COC(=O)CCOc2ccccc2)c1,-5,1,7,6,i,-36,1,-1
O=C(C1CC1)N1CCc2cc(Br)cc(S(=O)(=O)NCCN3CCOCC3)c21,0,-1,6,4,i,4,-7,-1
CCCNC(=O)CSc1nc2ccccc2c(=O)n1CCC,-13,0,14,4,i,-5,6,x
CCOc1ccccc1NC(=O)CCS(=O)(=O)c1ccc2c(c1)CCN2C(C)=O,-1,1,2,2,i,2,-12,-6
Clc1ccc(-c2nc(C3CCCCC3)no2)cc1,-2,-4,-48,-4,i,-1,-11,9
CC(=O)/C=C1/SC(CC(=O)O)C(=O)N1c1ccccc1 (stereo unspecified),0,1,25,7,i,-1,-14,-17
O=C(Nc1ccc(NC(=O)C2CC2)cc1)c1ccco1,-11,1,-27,0,i,-3,-12,x
CCCCN(C(=O)COC(=O)c1ccc(C)s1)c1c(N)n(CCC)c(=O)[nH]c1=O,x,2,3,2,x,x,-3,x
COc1ccccc1NC(=O)NNC(=O)c1ccc2ccccc2c1,-3,-7,-12,-2,i,-2,11,-11
CC(C)[C@@H](N)C(=O)NC[C@H]1O[C@@H](n2cnc3c(N)ncnc32)[C@H](O)[C@@H]1O,x,2,10,3,x,x,x,-23
OCCCn1c(C2CCCN2c2nc(-c3ccc(Cl)cc3)cs2)nc2cc(Cl)c(N3CCCCC3)cc21 (stereo unspecified),x,1,11,-6,i,x,13,-14
Cc1nn(C)c(C)c1N1C(=O)c2cccc3c(Br)ccc(c23)C1=O,14,-201,18,-2,x,28,x,7
CC1CCN(C(=O)c2cccc(S(=O)(=O)N3CCCCC3)c2)CC1,-6,5,31,-4,i,-8,-9,8
COc1ccc(/C=C/C(=O)c2ccc(Cl)s2)cc1O,-8,6,-65,-1,i,1,-1,0
CCCCc1ccc(NC(=O)c2ccc(NS(C)(=O)=O)cc2)cc1,-2,5,-5,-1,i,-16,2,-8
Clc1ccc(-c2ccnc(-n3cccc3)n2)s1,-1,-9,-9,2,i,3,0,-23
O=c1c2ccccc2c(C=Nc2ccc(O)cc2)c(O)n1Cc1ccccc1,39,1,-8,-3,i,2,22,-21
CCOc1ccc(NC(=O)CNC(=O)c2cn(-c3ccccc3OC)c(=O)c3ccccc23)cc1,4,0,17,-3,i,-1,-14,1
CC1(C)CC(O)C(CCC(O)c2ccccc2)C(C)(C)N1 (stereo unspecified),1,-5,x,0,i,-11,-4,-29
CCOC(CNC(=O)c1ccc2c(c1)ncn2-c1ccccc1OC)OCC,-2,5,-1,5,i,-6,-9,8
COc1ccc(S(N)(=O)=O)cc1C(=O)OCC(=O)Nc1ncc(Cl)c(C)c1Cl,x,-3,1,-1,x,x,9,-19
O=C(c1ccc(Cl)cc1)C1CCCN(Cc2cccn2-c2cccnc2)C1 (stereo unspecified),6,-3,8,-4,i,10,-8,x
COc1cc(C(=O)Nc2ccc3c(c2)OCO3)c([N+](=O)[O-])cc1OC,-3,3,-8,3,i,-6,2,-8
CCOc1ccc(N=C2NC(=O)C(CC(=O)Nc3ccccc3)S2)cc1 (stereo unspecified),2,2,1,0,i,3,4,13
O=c1oc(Nc2cccc(Cl)c2)nc2ccccc12,-6,6,-45,6,i,4,-2,x
COc1ccc(-n2cc(CN(C)C(C)c3ccncn3)c(-c3cccc(F)c3)n2)cc1 (stereo unspecified),5,-3,20,-5,i,4,-6,3

Reprinted from the part before: 2 compounds, followed by the next part.
molecule,eIF4H inh,MT1-MMP act inh,Env fusion inh,MT1-MMP act inh RFP,Rce1 inhib,PABP FP inh,CSC inhib,Yeast UUG start
O=c1oc(Nc2cccc(Cl)c2)nc2ccccc12,-6,6,-45,6,i,4,-2,x
COc1ccc(-n2cc(CN(C)C(C)c3ccncn3)c(-c3cccc(F)c3)n2)cc1 (stereo unspecified),5,-3,20,-5,i,4,-6,3
CCCc1c(C)nc(N2CCN(c3ccccc3F)CC2)[nH]c1=O,2,2,-2,-6,i,-9,-3,-10
CCOc1ccc(C(C)NC(=S)NCc2ccc(F)cc2)cc1 (stereo unspecified),5,1,-18,3,i,13,-8,-27
O=C(Nc1ccccc1)c1ccccc1NC(=O)C1CCCCC1,-3,-3,x,0,i,-5,x,-7
CCOC(=O)N1CCN(C(=O)/C(=C/c2cccc3ccccc23)NC(=O)c2ccc(OC)c(OC)c2)CC1,0,-1,9,0,i,-15,-8,3
Cc1cccc(C(=O)N(Cc2cccs2)C2CCS(=O)(=O)C2)c1 (stereo unspecified),-2,-1,4,2,i,3,2,-21
c1cncc(-c2nnc3n2CCC3)c1,2,5,x,6,i,-7,-16,-15
COc1ccc(S(=O)(=O)NCc2ccccc2)cc1Br,-2,1,5,-1,i,4,0,-9
Cc1[nH]c2ccccc2c1C(O)CN1CCC2(CC1)OCCO2 (stereo unspecified),-1,2,9,2,i,-4,4,-3
Cc1nnc(N/N=C/c2ccccc2F)n1N,5,6,-5,3,i,-11,-17,-18
Cc1ccc(NC(=O)c2ccncc2)cc1[N+](=O)[O-],-13,-6,11,-4,i,-12,22,-15
O=C1C(=Cc2cccs2)C(=O)c2ccccc21,3,5,-10,5,i,1,13,-26
CCCCN(C(=O)Cc1cccc(F)c1)c1c(N)n(CCC)c(=O)[nH]c1=O,-5,-2,4,-1,i,8,-7,x
Cc1ccc(CNC(=O)C(=O)c2cn(CC(=O)N3CCCC3)c3ccccc23)cc1,-4,0,-10,1,i,-2,x,-8

Bioassay records: PubChem BioAssay, several laboratories
